Rango-impB inh: Rango-importin beta binding inhibition; Q14974; Rango CFP/YFP FRET sensor + importin beta, 45 min; Potency, µM (highest dose often 92.2 µM), for the others: top-dose inhibition of complex formation; 340,000 compounds, 0.031% hits; AID 540263; active = rising FRET ratio curve, often small or poorly fitted; inconclusive = mostly compound fluorescence or quenching in the first reads; inactive = flat curves in all reads;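 further: potency means the concentration at half of the fitted maximal effect; 0% = DMSO wells and 100% = buffer wells lacking importin beta; nearly all actives have a fitted effect of over 15% in size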
Target sequence (Q14974 whole entry, looked up): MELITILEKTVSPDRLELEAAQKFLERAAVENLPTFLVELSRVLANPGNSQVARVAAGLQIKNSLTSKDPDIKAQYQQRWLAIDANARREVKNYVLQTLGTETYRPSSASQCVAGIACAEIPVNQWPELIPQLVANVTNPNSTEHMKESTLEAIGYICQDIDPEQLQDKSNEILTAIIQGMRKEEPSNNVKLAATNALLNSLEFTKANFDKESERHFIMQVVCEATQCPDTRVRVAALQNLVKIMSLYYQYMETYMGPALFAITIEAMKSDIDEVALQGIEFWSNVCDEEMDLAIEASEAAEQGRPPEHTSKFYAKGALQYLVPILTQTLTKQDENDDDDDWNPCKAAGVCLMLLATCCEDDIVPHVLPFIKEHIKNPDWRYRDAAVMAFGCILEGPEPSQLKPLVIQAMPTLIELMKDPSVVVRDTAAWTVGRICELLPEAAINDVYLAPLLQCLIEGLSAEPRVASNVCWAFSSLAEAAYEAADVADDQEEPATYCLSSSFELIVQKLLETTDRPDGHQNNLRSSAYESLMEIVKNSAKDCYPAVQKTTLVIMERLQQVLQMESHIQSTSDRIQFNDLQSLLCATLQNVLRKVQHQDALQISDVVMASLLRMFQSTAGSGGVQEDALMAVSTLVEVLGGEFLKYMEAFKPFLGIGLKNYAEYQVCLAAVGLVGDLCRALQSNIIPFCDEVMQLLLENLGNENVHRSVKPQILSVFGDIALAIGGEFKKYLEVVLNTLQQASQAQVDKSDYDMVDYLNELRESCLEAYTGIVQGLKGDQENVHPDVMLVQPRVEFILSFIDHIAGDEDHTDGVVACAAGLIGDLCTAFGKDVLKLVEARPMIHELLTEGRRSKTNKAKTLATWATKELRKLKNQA
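FRET biosensor (snurportin 1 IBB flanked by EYFP and cerulean), 50 nM, with compound 5 min, then 0.125 microM importin beta in PBS, 1 mM DTT, 0.02% Tween-20, 0.1% BSA. CFP/YFP ratio read after 45 min at room temperature; pre-read flags interference.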
miR-21 FLuc: miR-21 reporter, rising signal; HeLa miR-21 FLuc reporter, luciferase, 48 h; Potency, µM (series often up to 38.3 µM), without a hit: at the highest dose reporter change, positive = more light; 340,000 tested, under 10 active; AID 2288; active = well fitted rising curve with a large enough effect; inconclusive = small, poorly fitted or top-dose-only effect; inactive = no such curve, though single readings can be large or run the other way;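 further: % of control where 0% means no effect; miR-21 action dims this reporter so a rising signal means less miR-21 action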
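HeLa miR-21-FLuc reporter line, endogenous miR-21; 2000 cells/well in DMEM/10% FBS; compound titration up to ~40uM final, 48 h, 37 degree Celsius; luciferase detection reagent, 15 min lysis, CCD luminescence.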
GLA inh pH 4.5: blocks human alpha-galactosidase A at pH 4.5 | 230,000 tested, under 10 active | P06280 | purified enzyme, 4-MU-alpha-Gal fluorescence, pH 4.5 | activity change, negative = inhibition, % at 105 µM; inconclusive = small, poorly fitted or top-dose-only inhibition, or a rising curve; inactive = flat fitted curve, though single readings scatter; no compound was filed as active;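 further: 0% = full activity with enzyme and -100% = basal without enzyme; dose as in the result columns while the protocol names 77 µM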
Rango release inh: inhibition of RanGTP-driven Rango-importin beta dissociation; O95149+P62826; Potency, µM (doses to about 46.1 µM), without a hit: at the highest dose activity change, negative = inhibition; 340,000 compounds, 0.071% hits; AID 540253; Biochemical FRET Rango-importin beta, RanGTP-induced dissociation; active means falling FRET ratio curve, often poorly fitted, with flat reads before Ran was added; inconclusive means other falling curves, or compound fluorescence or quenching; inactive means flat or rising ratio curve;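 further: potency means the concentration at half of the fitted maximal effect; % of control where 0% means no effect; nearly all actives have a fitted effect of over 45% in size; -100% = wells without RanGTP and RCC1; the record marks most hits as doubtful in a second field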
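FRET read at 45 min, room temperature: inhibitors block the CFP/YFP signal rise when RanGTP (0.6 uM Ran, 2 mM GTP, 0.2 uM RCC1) frees Rango (0.1 uM) from importin beta (0.25 uM). Pre-read after 5 min compound exposure flags interference.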
* = called active by the depositor; u = inconclusive; x = not tested or not shown; & = joins results of further samples; [ ] = remark or other dose. Not all compounds are listed; the hit share may differ from the screen's.

Rango-impB inh | miR-21 FLuc | GLA inh pH 4.5 | Rango release inh | SMILES
0.1% | -1% | 2 | 6% | CCOC(=O)c1cc2sc(C)cc2n1CCCN1C(=O)c2ccccc2C1=O
1.8% | -1% | -13 | -12% | CC(=O)c1cccc(NC(=O)N2CCCC2C(=O)NC2CCCCC2)c1 (stereo not given)
1.0% | x | x | 2% | COC(=O)c1ccccc1NC(=O)COC(=O)Cc1ccc(S(=O)(=O)N2CCOCC2)s1
0.3% | -54% | x | -2% | CC(C)c1ccc(/C=N/NC(=O)C2CCCC2)cc1
2.4% | -1% | -3 | 5% | CCOC(=O)c1ccc2c(c1)N(CC(=O)N1CCCCC1)C(=O)C(C)(C)O2
-0.3% | x | x | -1% | CC(C)Cn1c(SCC(=O)N(C)c2c(N)n(Cc3ccccc3)c(=O)[nH]c2=O)nc2ccccc21
2.0% | 2% | 1[21.1 µM] | 4% | CCOC(=O)c1c(NC(=O)C2C3CCC(O3)C2C(=O)O)sc2c1CCCC2 (stereo not given)
-0.5% | 3% | x | 0% | O=C(CSc1nnc(COc2ccc(Cl)cc2)o1)NC1CC2CCC1C2 (stereo not given)
-1.6% | 1% | -7 | -24% | O=C(N/N=C/C1=C(N2CCOCC2)C(=C\c2ccccc2)/CC1)Nc1ccccc1
6.4% | 0% | 10 | -3% | CC(C)NC(=O)CCS(=O)(=O)c1cccc2nonc12
0.0% | 1% | x | 1% | Cc1ccc(NC(=O)CSc2sc3c(O)cc(=O)[nH]c3c2C#N)cc1C
-3.8% | -3% | x | 20% | CCCCN(C)CCCNC(=O)C1CCC(CNS(=O)(=O)c2c(C)cc(C)cc2C)CC1 (stereo not given)
u | -70% | -4 | -13% | Cc1cc(O)c(C2=Nc3ccccc3SC(c3ccc(Cl)cc3)C2)c(=O)o1 (stereo not given)
-1.3% | -33% | 2 | 12% | CCOc1ccc2c3c(c(=O)oc2c1OCC)CCCC3
-2.3% | 18% | 0 | 2% | O=C(Nc1ccc(Cl)cc1C(=O)NCc1cccnc1)c1ccc(Cl)cc1Cl
2.1% | -31% | -4 | 25% | N#Cc1c(NC(=S)NC(=O)Cc2cccs2)sc2c1CCCCC2
-1.2% | x | x | -2% | Cc1cc(C)n(CC(=O)NC2CCCCC2C)c(=O)c1C#N (stereo not given)
-0.9% | 1% | -7 | -7% | COc1cccc(C(=O)NNC(=O)Cc2csc(N)n2)c1
4.3% | -45% | -8 | -8% | O=C(O)CC(C(=O)O)n1nc(-c2ccccc2)cc1-c1ccccc1 (stereo not given)
-4.6% | x | x | -5% | CCN(CC(=O)Nc1ccccc1C(F)(F)F)C(=O)Cc1cccs1
5.7% | -5% | -7 | -23% | O=C(CCNC(=O)c1ccccc1)N/N=C/c1ccc([N+](=O)[O-])cc1
-3.3% | x | x | -9% | Cc1ccccc1N=C1Nc2ccccc2N[C@]12C[C@H]1CCC(=O)N3CC[C@@H](C2)[C@@H]13
2.5% | -29% | 3 | 4% | O=C(NCc1ccccn1)c1n[nH]c2ccccc12
1.1% | 17% | -14 | -10% | Cc1ccc(C)c(N(CC(=O)NC2CCCC2)C(=O)c2oc(C(C)(C)C)cc2C)c1
u | 1% | -6 | u | COc1ccc(C(=O)Cn2nnc(-c3ccccc3NC(=O)C3CCCCC3)n2)cc1

Rango-impB inh | miR-21 FLuc | GLA inh pH 4.5 | Rango release inh | SMILES
-3.3% | -1% | 0 | 1% | Cc1cn(Cc2ccccc2Cn2cc(C)c(=O)[nH]c2=O)c(=O)[nH]c1=O
1.3% | x | x | 0% | CCOC(=O)C1(Cc2ccccc2)C(=O)N(CCCN(C)C)c2ccccc21 (stereo not given)
0.0% | 6% | 4 | -13% | Cc1ccc2c(c1)nnn2C1CCN(CC(=O)Nc2ccc(F)cc2)CC1
-1.6% | -11% | 2 | 2% | COc1ccc(-c2cc(C(F)(F)F)nc(-n3cncn3)n2)cc1
-0.7% | -1% | 6 | 7% | COc1cc(NC(=O)CSc2nnc(NC(C)C)s2)cc(OC)c1OC
1.1% | -1% | 2 | 0% | COc1ccc(NC(=O)Cn2c(C)cc(=O)c3cccc(OC)c32)cc1
-2.0% | -2% | 7 | 3% | O=C(/C=C/c1ccc([N+](=O)[O-])cc1)NCCN1C(=O)S/C(=C\c2ccc(F)cc2)C1=O
-2.3% | 7% | 3[21.1 µM] | -3% | CC(=O)Nc1cc(C(=O)NCCN2CCN(Cc3ccccc3)CC2)ccc1Sc1ccc(C)cc1
-5.2% | -6% | -4 | 2% | Cc1noc(C)c1COC(=O)Cc1ccc(Br)cc1
-1.1% | -2% | -3 | -16% | O=S(=O)(NCc1ccccn1)c1cc(C(F)(F)F)ccc1Cl
-0.8% | -1% | 4 | 20% | O=C1CC(N2CCN(c3nc4ccccc4s3)CC2)C(=O)N1c1cccc(F)c1 (stereo not given)
u | 0% | -3 | u | CC(/C=C1\NC(=S)NC1=O)=C\c1ccccc1
-0.2% | -3% | -15 | 0% | Cc1ccc(C)c(NC(=O)CN(C)C(=O)CCN2C(=O)c3ccccc3C2=O)c1
-2.8% | 13% | -11 | 13% | O=CN1CCN(c2ncnc3c2nnn3Cc2c(F)cccc2Cl)CC1
0.8% | 0% | 6 | -2% | CCCC1C2C(=O)N(c3ccccc3OCC)C(=O)C2ON1c1ccccc1 (stereo not given)
4.1% | 0% | -3 | -5% | CCCOc1ccc(C(=O)NC(=S)Nc2nc(C)c(C(=O)N(C)C)s2)cc1
-0.9% | -10% | x | 2% | Cc1cnc(=O)[nH]c1SCc1ccc(C(F)(F)F)cc1
0.6% | 0% | -1 | -6% | CCOc1ccccc1N(CC(=O)OC)S(=O)(=O)c1ccccc1
0.4% | -9% | 1 | 2% | COc1ccccc1NC(=O)c1ccc(Cl)c(S(=O)(=O)N2CCOCC2)c1
u | x | x | 3% | CC(=O)c1ccc(NC(=O)CSc2nc3[nH]c(=O)cc(O)c3s2)cc1
2.3% | -47% | -9 | -1% | O=C(NC1CCCCC1)c1cc2nc3c(c(C(F)(F)F)n2n1)CCCC3
1.4% | -7% | x | -1% | COc1ccc(CNS(=O)(=O)c2ccc(-c3ccc(=O)[nH]n3)s2)cc1OC
-0.1% | -2% | 5 | -8% | Cc1cccc(C)c1NC(=O)CS(=O)CC(=O)Nc1ccc(F)cc1F (stereo not given)
-0.4% | -7% | -3 | -1% | COc1ccc(OC)c(CCNC(=O)CC2Oc3ccc(C)cc3NC2=O)c1 (stereo not given)
0.2% | -2% | x | -12% | COC(=O)c1ccc(-c2nc(CN3CCC(C(=O)N4CCOCC4)CC3)c(C)o2)cc1

Results in miR-21 FLuc, Rango release inh and Rango-impB inh, for some of the entries so far:
molecule | miR-21 FLuc | Rango release inh | Rango-impB inh
COc1ccc(OC)c(CCNC(=O)CC2Oc3ccc(C)cc3NC2=O)c1 (stereo not given) | -7% | -1% | -0.4%
Cc1cccc(C)c1NC(=O)CS(=O)CC(=O)Nc1ccc(F)cc1F (stereo not given) | -2% | -8% | -0.1%

Single records, as listed above. Order of screens: Rango-impB inh	miR-21 FLuc	GLA inh pH 4.5	Rango release inh
Shown for CCCOc1ccc(C(=O)NC(=S)Nc2nc(C)c(C(=O)N(C)C)s2)cc1 → 4.1%	0%	-3	-5%
Shown for Cc1noc(C)c1COC(=O)Cc1ccc(Br)cc1 → -5.2%	-6%	-4	2%

The list goes on:
Rango-impB inh | miR-21 FLuc | GLA inh pH 4.5 | Rango release inh | SMILES
-0.4% | 5% | x | -10% | O=C(Cc1c[nH]c2ccccc12)NCc1ccncc1
-0.3% | x | x | 3% | Cc1ccc(NC(=O)C2CSC3(C)CCC(=O)N23)cc1S(=O)(=O)N1CCCCCC1 (stereo not given)
-7.5% | -11% | 0 | 20% | COc1ccccc1CNC(=O)c1ccccc1N
0.4% | 7% | -4 | 10% | CC(=O)Nc1cc[n+](C(C)C(=O)c2ccc(Br)cc2)cc1 (stereo not given)
-2.9% | x | x | 1% | CCCN1CCN(C(=O)c2ccc(F)c(S(=O)(=O)N3CCOCC3)c2)CC1
-2.9% | -10% | -24 | u | CC(=O)NCCc1nc2ccccc2n1Cc1ccc(C)cc1
0.0% | -2% | 2 | 9% | O=C1CC(N2CCN(Cc3ccc4c(c3)OCO4)CC2)C(=O)N1c1cccc2ccccc12 (stereo not given)
1.2% | 0% | x | -2% | O=C(C1CCC(CNc2c(N3CCCCC3)c(=O)c2=O)CC1)N1CCN(c2ccccn2)CC1 (stereo not given)
1.5% | -10% | -2 | 12% | CCOc1ccc(/C(C)=N/NC(=O)C(OC)c2ccccc2)cc1 (stereo not given)
5.6%&3.8% | -1%&-1% | -3&-11 | u | O=C(O)CC1S/C(=N/N=C/C=C/c2ccccc2)NC1=O (stereo not given)
-0.7% | 0% | x | -10% | CCOc1ccc(N(CC(=O)N2CCCCC2)S(=O)(=O)c2ccc(Cl)cc2)cc1
-1.2% | 0% | x | -4% | COc1ccc(NC2CCCN(C(=O)c3ccccc3C(F)(F)F)C2)cc1 (stereo not given)
-0.7% | 0% | x | 1% | N#CCCc1cccc(CCC#N)c1
0.5% | x | x | -4% | COc1cc(OC)c(N2CC(C(=O)Nc3cc(Cl)ccc3N3CCOCC3)CC2=O)cc1Cl (stereo not given)
1.7% | -6% | 1 | -1% | CC(C)Nc1cc(N2CCCC2)ccc1[N+](=O)[O-]
u | -33% | 6 | u | O=C1Nc2ccccc2S/C1=C/c1cccs1
0.0% | -9% | x | -9% | CC(C)c1ccc(NC(=O)C2CC2c2ccccc2)cc1 (stereo not given)
-0.3% | 1% | 0 | 0% | O=C(COc1ccc(Cl)cc1)NCCc1ccccn1
2.4% | -4% | -1 | 10% | Cc1nn(C)cc1C(=O)Nc1c(C)nn(Cc2ccccc2Cl)c1C
-3.5% | x | x | -15% | O=C(CN1C(=O)NC2(CCc3ccccc32)C1=O)NCc1ccccc1Cl (stereo not given)
4.9% | -5% | 3 | -6% | COc1cccc(C(NC(=O)c2ccccc2F)NC(=O)c2ccccc2F)c1
3.0% | 0% | 1 | -1% | COCCCNC(=O)CCc1ccccc1
0.7% | x | x | -13% | CC(=O)Nc1ccc(S(=O)(=O)Nc2ccc3nc(C)sc3c2)cc1
-5.7% | -3% | x | -7% | c1ccc(Cn2ncc3c(N4CCN(C(c5ccccc5)c5ccccc5)CC4)ncnc32)cc1
6.4% | -11% | 0 | 8% | Cc1cccc(C(=O)OCC(=O)Nc2nccs2)c1

Rango-impB inh | miR-21 FLuc | GLA inh pH 4.5 | Rango release inh | SMILES
-0.8% | 5% | 9 | 14% | O=C(N(c1ccccn1)c1ccccn1)C12CC3CC(CC(Cl)(C3)C1)C2
-0.7% | x | x | 10% | CCc1ccc(C(=O)C(C)OC(=O)c2nn(C)c(=O)c3ccccc23)cc1 (stereo not given)
0.3% | -27% | -7 | 0% | COc1cc(/C=N/Nc2ncnc3sc4c(c23)CCC4)ccc1O
-1.9% | -4% | x | 2% | O=C(CN1CCN(C(=O)C2CCCO2)CC1)Nc1ccc(Cl)c(Cl)c1 (stereo not given)
4.5% | 0% | -7 | 3% | Cc1ccc(S(=O)(=O)c2c(C(=O)c3ccccc3)cnc3cc4c(cc23)OCCO4)cc1
u | 0% | -8 | 8% | CCn1ccnc1CNC(=O)CC1C(=O)NCCN1CC(c1ccccc1)c1ccccc1 (stereo not given)
-0.3% | -2% | -3 | -3% | CC(C)(C)C1CCC2(CC1)C(Nc1cccc(C(F)(F)F)c1)=NC(=S)N2CC#N (stereo not given)
-0.9% | -5% | -5 | 0% | COc1ccc(CN2CCC(C(=O)N3CCN(c4ccccc4F)CC3)CC2)cc1OC
3.6% | 1% | -2 | 7% | Cc1ncsc1CCOC(=O)c1ccc([N+](=O)[O-])cc1

Some of these compounds in order of heavy-atom count, ascending.
Rango-impB inh | miR-21 FLuc | GLA inh pH 4.5 | Rango release inh | SMILES
-0.4% | 5% | x | -10% | O=C(Cc1c[nH]c2ccccc12)NCc1ccncc1
2.4% | -4% | -1 | 10% | Cc1nn(C)cc1C(=O)Nc1c(C)nn(Cc2ccccc2Cl)c1C
2.4% | -1% | -3 | 5% | CCOC(=O)c1ccc2c(c1)N(CC(=O)N1CCCCC1)C(=O)C(C)(C)O2
-5.7% | -3% | x | -7% | c1ccc(Cn2ncc3c(N4CCN(C(c5ccccc5)c5ccccc5)CC4)ncnc32)cc1
